D2 PAM: positive allosteric modulators of human D2 dopamine receptor; potentiation, % (test concentration not listed); 360,000 tested, 0.23% active; AID 624464; DiscoveRx D2 beta-arrestin cells, luminescence, 90 min; 100% = 57 uM dopamine signal; P14416; active = potentiation of 50% or more; inconclusive = 30% to 50%; inactive = 30% or less;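 further: compound concentration not given in the record; tested on top of an EC20 dose of dopamine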
Target sequence (P14416 whole entry, looked up): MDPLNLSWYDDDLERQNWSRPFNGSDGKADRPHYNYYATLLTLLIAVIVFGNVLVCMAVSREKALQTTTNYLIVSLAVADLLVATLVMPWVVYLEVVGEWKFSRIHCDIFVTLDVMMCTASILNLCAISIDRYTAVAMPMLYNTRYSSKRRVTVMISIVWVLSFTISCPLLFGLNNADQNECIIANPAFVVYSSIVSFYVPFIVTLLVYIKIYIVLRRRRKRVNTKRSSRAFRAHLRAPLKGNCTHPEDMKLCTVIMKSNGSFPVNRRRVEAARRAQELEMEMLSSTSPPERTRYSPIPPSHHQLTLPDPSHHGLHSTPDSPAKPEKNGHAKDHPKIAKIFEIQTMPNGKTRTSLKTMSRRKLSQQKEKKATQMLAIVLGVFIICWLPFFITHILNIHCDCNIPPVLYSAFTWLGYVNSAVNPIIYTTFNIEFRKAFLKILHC
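PathHunter D2 cells, attached overnight at 37 deg C, received compound in DMSO plus dopamine at EC20 (50 nM final) for 90 min at 37 deg C. Beta-arrestin recruitment was read as luminescence after 1 h with detection reagent at ambient temperature.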
D2 agonist: human D2 receptor agonism in beta-arrestin assay | DiscoveRx PathHunter D2 beta-arrestin, luminescence, 90 min; 100% = 57 uM dopamine signal | activation, % (test concentration not listed) | 360,000 tested, 0.084% active; in the data active = activation above about 40%; inconclusive = about 15% to 40%; inactive = below about 15%; further: compound concentration not given in the record; the text of the record calls up to 30% inactive
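Agonist mode: compounds alone added to overnight-plated D2 PathHunter cells for 90 min at 37 C, with 57 uM final dopamine (EC100) defining full response. Beta-arrestin recruitment detected by chemiluminescent reagent, read after 1 h at ambient temperature.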
TRPML1 agonist: agonists of human TRPML1 channel; Q9GZU1; TRPML1-expressing cells, Ca2+ dye fluorescence, FDSS; host cell line not named in the record; reference of the full effect not given here; activation, % (test concentration not listed); 410,000 tested, 0.12% active; in the data active = activation above about 50%; inconclusive = about 30% to 50%; inactive = below about 30%; further: 0% is about no effect; the text of the record puts the active cut at 80%
Target sequence (Q9GZU1 whole entry, looked up): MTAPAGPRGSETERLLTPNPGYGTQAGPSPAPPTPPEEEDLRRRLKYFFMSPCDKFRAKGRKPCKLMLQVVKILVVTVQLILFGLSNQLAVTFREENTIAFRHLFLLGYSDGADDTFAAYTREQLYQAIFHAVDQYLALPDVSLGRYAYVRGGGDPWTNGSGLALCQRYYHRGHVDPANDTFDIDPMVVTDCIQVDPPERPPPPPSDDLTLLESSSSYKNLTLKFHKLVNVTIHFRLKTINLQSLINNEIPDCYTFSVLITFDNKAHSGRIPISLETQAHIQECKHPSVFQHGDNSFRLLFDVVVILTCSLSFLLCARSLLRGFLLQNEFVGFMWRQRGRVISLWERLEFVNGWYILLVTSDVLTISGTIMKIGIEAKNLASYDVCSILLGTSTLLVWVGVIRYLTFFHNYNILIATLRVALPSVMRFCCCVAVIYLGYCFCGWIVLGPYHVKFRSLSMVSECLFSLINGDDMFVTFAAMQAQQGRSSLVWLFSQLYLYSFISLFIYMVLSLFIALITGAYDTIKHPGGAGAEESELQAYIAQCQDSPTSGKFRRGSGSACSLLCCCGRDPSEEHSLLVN
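Tet-induced TRPML1-DL cells, 1,500 per well, cultured overnight, were loaded with a no-wash Ca2+ dye for 45–90 min. Calcium fluorescence was recorded on the FDSS for 110 s after compound addition, before the EC80 agonist (4 uM 54-4) was added.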
PINK1 expr mod: PINK1 expression modulation. PINK1 immunofluorescence, high-content cytometry, 24 h. Potency, µM (highest dose often 76.6 µM), for inactives: top-dose activation (PINK1 increase), actives largely listed as activators. 410,000 tested, 0.2% active; active = well fitted activation curve with a large enough effect; inconclusive = small, poorly fitted or top-dose-only effect; inactive = flat fitted curve, though single readings scatter; cell line not stated here;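 further: potency means the concentration at half of the fitted maximal effect; % of control where 0% means no effect; nearly all actives have a fitted effect of over 65% in size; a mitochondrial uncoupler was the plate control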
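Readout is PINK1 immunofluorescence, quantified alongside mitochondrial, cell and nuclear markers by laser-scanning microplate cytometry. Cells from a stable line were exposed to compound titrations (5 concentrations) for 24 hours, with CCCP controls.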
Six1-Eya2 inh: Six1/Eya2 interaction inhibition | AlphaScreen GST-Six1/His-Eya2 binding, biochemical; stronger effect = lower value; control for the full effect not named in the record | activity change, % (test concentration not listed) | 360,000 tested, 0.56% active | AID 651725; in the data active = activity change below about -65%; inconclusive = about -30% to -65%; inactive = above about -30%; further: on the % scale 0 is the no-effect control and ±100 the full control effect; compound concentration not given in the record
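AlphaScreen luminescence read after one hour at 37 °C in darkness. Pin-transferred compounds met GST-Six1 and His-Eya2 protein (5X stock 250 nM/500 nM) plus glutathione donor and Ni-chelate acceptor beads (5X, 50 ug/mL).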
CtBP-E1A blk: CtBP/E1A binding inhibition; AlphaScreen GST-E1A/His-CtBP binding, 1536-well; stronger effect = lower value; control for the full effect not named in the record; 340,000 tested, 0.49% active; activity change, % (no concentration beside the values); in the data active means activity change below about -65%; inconclusive means about -30% to -65%; inactive means above about -30%; further: on the % scale 0 is the no-effect control and ±100 the full control effect; compound concentration not given in the record
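Homogeneous bead-based format: GST-tagged E1A captured on glutathione donor beads, His-tagged CtBP on nickel acceptor beads; compounds precede bead addition by 2 h at 37 °C.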
Starred values were filed as active, the others as inactive; u = inconclusive; x = not tested or not shown; & = joins results of further samples; [ ] = another dose, or the depositor's remark.

no.	smiles	D2 PAM	D2 agonist	TRPML1 agonist	PINK1 expr mod	Six1-Eya2 inh	CtBP-E1A blk
1	CCOC(=O)/C=C1\NC2(CCCCC2)Cc2cc(OC)c(OC)cc21	17	-0.9	1.2	x	4	-4
2	CC(C)[Si]1(C(C)C)OCC2OC(n3cnc4c(N)ncnc43)C(N)C2O[Si](C(C)C)(C(C)C)O1 (configuration not stated)	u	9.6	0.5	-2.0%	1	-3
3	CCn1nc(C)c(NC(=O)c2ccc(Br)o2)c1C	-6	-2.2	0.0	-0.5%	15	19
4	C/C(=N/NC(=O)c1ccoc1C)c1cccc(NC(=O)C2CC2)c1	0	2.5	-0.2	1.7%	-5	2
5	CC(O)C(O)C(O)C(O)/C=N/NC(=O)c1ccccc1 (configuration not stated)	-10	-0.3	1.5	1.4%	9	7
6	Cc1cc(N2CCN(C(=O)Oc3ccc([N+](=O)[O-])cc3)CC2)c2ccccc2n1	x	x	-0.8	-0.1%	-4	-5
7	COc1ccc(CNc2nnnn2C)c(OC)c1	-3	1.1	-0.1	-1.3%	2	-1
8	CSCCOC(=O)C1=C(C)NC(=O)CC1c1ccccc1Cl (configuration not stated)	-39	-2.0	1.4	0.6%	-14	-10
9	CCCCN(CCCC)CC(O)COc1ccc(Br)cc1 (configuration not stated)	-20	-2.7	0.8	1.3%	6	-1
10	Cc1ccc(NS(=O)(=O)c2cc(N)ccc2Cl)c(C)c1	-7	-2.7	x	5.0%	-8	-4
11	CN(CC(=O)NCCc1ccc(F)cc1)Cc1cccs1	-4	-0.9	1.5	-1.5%	6	6
12	COc1ccc(C2=CSC3=NCCN23)cc1Cl	-4	-0.5	0.8	0.6%	7	-2
13	Cc1cc(NC(=O)CSc2ncnc3ccccc23)no1	-9	-3.0	-1.0	1.2%	4	0
14	O=C(NCCCn1ccnc1)c1cc(-c2ccccc2)on1	-17	-2.7	0.1	3.3%	-1	x
15	CC(=O)Nc1ccc(S(=O)(=O)N2CCN(S(=O)(=O)N3CCC(C)CC3)CC2)cc1	1	3.8	-0.2	-0.4%	-1	7
16	CCN(Cc1ccccc1)C(=O)CSc1nncn1C	-1	-0.8	-0.1	-0.7%	8	0
17	CC(C)CNS(=O)(=O)c1cc(C(=O)N2CC(C)OC(C)C2)c(Cl)cc1Cl (configuration not stated)	0	2.2	-0.1	-3.2%[38.3 µM]	6	-1
18	CC(C)(C)OC(=O)N1CCC(c2c(C(=O)O)cnn2-c2ccc(Cl)cc2)CC1	-12	-0.8	0.4	7.8%[38.3 µM]	0	4
19	CC(=O)C1=C(O)C(=O)N(Cc2ccccc2)C1c1ccco1 (configuration not stated)	2	-4.6	-0.4	1.0%	-2	-1
20	CCc1nc2c(OCc3ccc(C(F)(F)F)cc3)cccn2c1N(C=O)Cc1ccc(OC)cc1	-5	-4.2	4.8	24%	-7	-7
21	O=C(CN1C(=O)COc2ccccc21)NCCN1CCC(Cc2ccccc2)CC1	-25	-1.5	0.4	-3.5%[38.3 µM]	-2	-7
22	CN(C)CCCN(C(=O)C1COc2ccccc2O1)c1nc2ccc(F)cc2s1 (configuration not stated)	-11	-3.2	-0.8	0.2%	0	1
23	O=C(Nc1ccc(S(=O)(=O)Nc2nccs2)cc1)C(F)(F)F	-9	-2.5	1.1	-1.7%	0	-26
24	CC(=O)Nc1ccc(NC(=O)C(C)OC(=O)CC2CCCC2)cc1 (configuration not stated)	9	-2.0	0.4	1.3%	9	-4
25	COC(=O)C(C(=O)OC)c1ccc(-n2cccc2)cc1	-5	-7.9	0.0	1.6%	-18	-26
26	CN(c1ccccc1)S(=O)(=O)c1ccc(NC(=S)NC(=O)C2CC2)cc1	0	-2.5	0.2	-2.0%	-1	-3
27	Cc1cccc(C)c1NC(=O)c1cc(S(=O)(=O)N2CCOCC2)ccc1F	-4	-1.8	-0.4	-2.2%[38.3 µM]	-3	-17
28	CC(=O)OC1C(OC(C)=O)C2C(C)CC3OC(=O)C(C)C3CC2(C)C1OC(C)=O (configuration not stated)	-11	-1.5	-0.7	1.0%	1	-14
29	CC(C)(C)OC(=O)N/N=C/c1cc(N=Nc2ccccc2)ccc1O	-28	-5.2	1.2	12%	-27	-7
30	O=C(NCCCn1ccnc1)c1ccc(N2CCCCCC2)c([N+](=O)[O-])c1	-16	-5.5	0.0	-0.5%	-9	-15

As entered above.
Entry for compound 20 in D2 agonist: -4.2
Entry for compound 21 in CtBP-E1A blk: -7
Entry for compound 4 in D2 agonist: 2.5
Entry for compound 9 in D2 PAM: -20
Entry for compound 18 in D2 PAM: -12

Following part
no.	smiles	D2 PAM	D2 agonist	TRPML1 agonist	PINK1 expr mod	Six1-Eya2 inh	CtBP-E1A blk
31	CNC(=O)C1Cc2c(-c3ccc4c(c3)OCO4)ccnc2O1 (configuration not stated)	-7	-7.7	-0.6	0.7%	6	2
32	COc1cccc(CNC(=O)CCCn2ncn3c(cc4occc43)c2=O)c1	-8	-4.1	-0.8&-0.1	-1.0%&-0.7%	-2	-9
33	CNC(=O)c1sc(-c2ccc(Cl)cc2)nc1C	-12	3.9	-0.6	-0.9%	9	1
34	COc1ccc(OC)c(NC(=O)NNC(=O)COc2ccc(-c3ccccc3)cc2)c1	4	-4.0	1.0	6.4%	-9	-1
35	CC1CC(=S)Nc2ccccc2N1C(=O)Nc1ccccc1 (configuration not stated)	-8	-4.5	-0.3	2.9%	-7	-14
36	Cn1cc(Cl)c(C(=O)N/N=C/c2ccc3c4c(cccc24)CC3)n1	-6	-0.3	1.0	2.1%	-21	u
37	O=C(CCCc1ccccc1)NC1CC1	-6	-1.0	-0.3	3.2%	0	3
38	C#CCOC(=O)C[N+](C)(C)C/C=C/c1ccccc1	-13	1.4	1.3	-0.3%	7	0
39	C=C(C)C(=O)Nc1cccc(C2=NOC3(C2)C[C@H](C(N)=O)N(C(=O)/C=C/C)C3)c1 (some centres not stated)	-4	-2.8	-0.8	7.4%	-4	0
40	CCOC(=O)N1CCN(C(=O)COC(=O)c2cccc(C)c2[N+](=O)[O-])CC1	2	1.2	2.3	1.6%	4	-17

Whole records, quoted from the list.
`CNC(=O)C1Cc2c(-c3ccc4c(c3)OCO4)ccnc2O1` (configuration not stated) in the list: D2 PAM = -7; D2 agonist = -7.7; TRPML1 agonist = -0.6; PINK1 expr mod = 0.7%; Six1-Eya2 inh = 6; CtBP-E1A blk = 2
`Cn1cc(Cl)c(C(=O)N/N=C/c2ccc3c4c(cccc24)CC3)n1` in the list: D2 PAM = -6; D2 agonist = -0.3; TRPML1 agonist = 1.0; PINK1 expr mod = 2.1%; Six1-Eya2 inh = -21; CtBP-E1A blk = u
`C=C(C)C(=O)Nc1cccc(C2=NOC3(C2)C[C@H](C(N)=O)N(C(=O)/C=C/C)C3)c1` (some centres not stated) in the list: D2 PAM = -4; D2 agonist = -2.8; TRPML1 agonist = -0.8; PINK1 expr mod = 7.4%; Six1-Eya2 inh = -4; CtBP-E1A blk = 0

New compounds follow:
no.	smiles	D2 PAM	D2 agonist	TRPML1 agonist	PINK1 expr mod	Six1-Eya2 inh	CtBP-E1A blk
41	Cc1cc(NC(=O)COC(=O)c2ccc(NS(=O)(=O)c3ccc(C)c(C)c3)cc2)no1	18	1.1	2.4	1.5%	-1	1
42	COc1cccc(N2CC(C(=O)Nc3nnc(SCC(=O)N4CCOCC4)s3)CC2=O)c1 (configuration not stated)	-16	-1.0	-0.1	-0.7%	-19	-4
43	CCOC(=O)c1c(NC(=O)COc2cccc3c2CCN(C)C3=O)sc2c1CCC2	-19	1.7	-0.5	-0.2%	-4	-9
44	COc1ccccc1N1CCN(CC(O)c2c(C)[nH]c3ccccc23)CC1 (configuration not stated)	-33	-3.8	0.9	0.6%	-3	-15
45	COc1ccc2[nH]c3c(NCCN(C(C)C)C(C)C)ncnc3c2c1	-21	-2.4	-0.6	6.2%	-1	0
46	O=C(c1nc2nc(-c3cccs3)cc(C(F)(F)F)n2n1)N1CCN(Cc2ccccc2)CC1	19	-1.0	0.0	-0.4%	u	u
47	CC1CN(C)C(c2ccccc2)C(C)C12NC(=O)NC2=O (configuration not stated)	-2	-2.6	-0.7	0.5%	8	4
48	Cc1nn(-c2ccc(F)cc2)c(-n2cccc2)c1C(=O)N1CCN(C(=O)c2ccco2)CC1	-2	-4.0	-0.7	1.3%	16	25
49	O=C(O)CCn1cc(/C=C2\SC(=S)NC2=O)c(-c2ccccc2)n1	-6	-3.4	-0.5	-1.1%	-18	-1
50	Cc1ccc(NC(=O)COC(=O)[C@H](C)NC(N)=O)c(C)c1	-9	-1.8	0.5	-1.8%	7	x
51	O=C(Nn1cc(C(=O)Nc2ccc(F)cc2F)c2ccccc2c1=O)c1cnccn1	-2	0.0	1.1	0.7%	-72*	u
52	CC1(C(=O)OCC(=O)Nc2ccccc2Cl)CC1(Cl)Cl (configuration not stated)	-5	8.0	0.3	0.1%	3	0
53	COc1ccc(C2OCC(C)(C)CO2)cc1OC	1	0.3	0.6	-0.7%	10	7
54	Cc1cc(C(C)(C)C)cc(C)c1CC1=NCCN1	-21	-0.6	-0.4	-0.4%	25	3
55	O=CNC1CCCc2c1[nH]c1ccc(Cl)cc21 (configuration not stated)	77*	5.3	0.8	1.2%	-2	0
56	CCOC(=O)CSc1nc2cccnc2n1C	-4	-1.1	-0.2	-1.0%	1	3
57	COc1ccc2c(c1)c1c(c(=O)n(-c3ccc(C)cc3)c(=O)n1CC(=O)NCC1CCCO1)n2C (configuration not stated)	0	-0.5	-0.5	-0.2%	4	4
58	Cc1cnc(C(=O)OCC(=O)N2C(C)CCCC2C)cn1 (configuration not stated)	0	-3.1	-0.6	2.2%	0	x
59	CC1(C)CC2CC(C)(CN2/C=C2/CCCCC2=O)C1 (configuration not stated)	-2	-3.6	-0.2	-0.3%	10	-1

Fetched by structure from the entries so far:
no.	smiles	D2 PAM	D2 agonist	TRPML1 agonist	PINK1 expr mod	Six1-Eya2 inh	CtBP-E1A blk
54	Cc1cc(C(C)(C)C)cc(C)c1CC1=NCCN1	-21	-0.6	-0.4	-0.4%	25	3
57	COc1ccc2c(c1)c1c(c(=O)n(-c3ccc(C)cc3)c(=O)n1CC(=O)NCC1CCCO1)n2C (configuration not stated)	0	-0.5	-0.5	-0.2%	4	4

Hits appear at their usual frequency; overall some 1.3% were active at least once.
